Methyltransferases – Primary Screen for Target Class Profiling of Small Molecule Inhibitors of Methyltransferases | purified enzyme, MTase-Glo SAH luminescence; active compounds read low | calls only at 40 µM | 25,000 tested, 3.9% active; active = -50% or lower on at least one of six enzymes; inconclusive = the cases between; inactive = as a rule above -30% on all six;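 also: enzymes were COMT GAMT GNMT HNMT NNMT and PNMT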
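Each enzyme was reacted with SAM and its substrate, with compounds tested once at 40 uM; SAH formed was read by MTase-Glo luminescence.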
Calls only; i = inactive; ? = inconclusive; + = active, no number. % is scaled to controls: 0 for no effect and ±100 for the full control effect. Some of the compounds tested. The share of hits here may be higher or lower than overall.

SMILES	Methyltransferases
Cc1ccc(NC(=O)CCc2nnc3n(Cc4ccccc4)c(=O)c4ccccc4n23)cc1C	i
Cc1nc(C)c(C(=O)N2CCC(C(=O)N3CCCCCCNC(=O)CC3)CC2)s1	i
CCN(CC)CCCN1C(=O)c2cc3oc(C)cc3n2CC1(C)C(=O)NC1CCCCC1 (centres undefined)	i
COc1ccc(-c2noc(CC3CCN(C(=O)c4cc(F)ccc4F)CC3)n2)cc1	i
CC1(C(=O)NC2CC2)CCCc2cnc(Nc3cccnc3)nc21 (centres undefined)	i
CC1CCCCC1NC(=O)C1(C)Cn2c(cc3occc32)C(=O)N1Cc1ccccc1 (centres undefined)	i
CC1(C(=O)NC2CCCCCC2)Cn2c(ccc2-c2ccccc2)C(=O)N1Cc1ccccc1Cl (centres undefined)	i
Fc1ccc([C@@H]2CCNC[C@H]2COc2ccc3c(c2)OCO3)cc1	?
Nc1nc(Cl)nc2c1ncn2[C@@H]1O[C@H](CO)[C@@H](O)[C@H]1O	i
COc1ccc2cc3n(c2c1)CC(C)(C(=O)NC1CCCC1)N(Cc1ccc2c(c1)OCO2)C3=O (centres undefined)	i
O=C(NC1CCCN(CCn2nc3n(c2=O)CCCC3)C1)c1ccccc1Cl (centres undefined)	i
CNC(=O)c1cc(Oc2ccc3nc(N[C@@H]4CCCC[C@H]4O)sc3c2)ccn1	i
Cc1ccc(C)c(N2C(=O)c3cc(C(C)(C)C)nn3CC2(C)C(=O)NC2CCCCC2)c1 (centres undefined)	i
Cc1ccc(Nc2ncc(C(=O)N3CCN(c4ccc(F)cc4)CC3)c3ccccc23)cc1Cl	?
COc1cccc(S(=O)(=O)N2CCC(n3c(C)cnc3C3CC3)CC2)c1	i

6 structures already listed, ordered by length of the SMILES, largest number first.
SMILES	Methyltransferases
COc1ccc2cc3n(c2c1)CC(C)(C(=O)NC1CCCC1)N(Cc1ccc2c(c1)OCO2)C3=O (centres undefined)	i
Cc1ccc(NC(=O)CCc2nnc3n(Cc4ccccc4)c(=O)c4ccccc4n23)cc1C	i
CCN(CC)CCCN1C(=O)c2cc3oc(C)cc3n2CC1(C)C(=O)NC1CCCCC1 (centres undefined)	i
COc1ccc(-c2noc(CC3CCN(C(=O)c4cc(F)ccc4F)CC3)n2)cc1	i
Fc1ccc([C@@H]2CCNC[C@H]2COc2ccc3c(c2)OCO3)cc1	?
CC1(C(=O)NC2CC2)CCCc2cnc(Nc3cccnc3)nc21 (centres undefined)	i

More records follow:
SMILES	Methyltransferases
O=C(CCc1nnc2n(Cc3ccccc3)c(=O)c3ccccc3n12)N1CCN(C2CCCCC2)CC1	i
CC(C)(C)c1ccc(S(=O)(=O)NCc2ccc(C(=O)Nc3cccnc3)cc2)cc1	i
O=C1Nc2ccccc2C12CN(Cc1ccc(C(F)(F)F)cc1)C2	i
CCCn1c(=O)c2cc(Cl)ccc2n2c(SCC(=O)Nc3ccc(F)cc3)nnc12	i
CC1(C)CC[C@]2(C(=O)O)CC[C@]3(C)C(=CC[C@@H]4[C@@]5(C)C[C@@H](O)[C@H](O)C(C)(C)[C@@H]5CC[C@]43C)[C@@H]2C1	?
COc1c(Nc2ncc(Cl)c(N[C@H]3[C@@H](C(N)=O)[C@@H]4C=C[C@H]3C4)n2)ccc2c1CC[C@@H](N1CCOCC1)CC2	i
COC(=O)c1cc2n(n1)CC(C)(C(=O)NC1CCCCCC1)N(c1ccc(C(C)C)cc1)C2=O (centres undefined)	i
CC1(C(=O)NC2CCCCCCC2)Cn2c(ccc2-c2ccco2)C(=O)N1Cc1ccc(Cl)cc1 (centres undefined)	i
CCC[C@@H](NC(=O)N1C(=O)C(CC)(CC)[C@@H]1Oc1ccc(C(=O)N2CCN(C)CC2)cc1)c1ccc2c(c1)OCO2	i
CCOC(=O)C1=C(C)NC(C)=C(C(=O)OC)C1c1cccc([N+](=O)[O-])c1 (centres undefined)	i
O=C(Cn1ccc2cc(S(=O)(=O)N3CCCC3)ccc21)NCc1ccccc1Br	i
COCCOC1CCN(C(C(=O)O)c2ccc(OC)c(F)c2)CC1 (centres undefined)	i
COc1ccc(CNC(=O)C2(C)Cn3cnc(C(=O)NCc4ccccc4Cl)c3C(=O)N2C2CC2)cc1 (centres undefined)	i
N#Cc1cccc(C(=O)N2CCNc3cnc(Nc4cccc(F)c4)nc3C2)c1	i
CC(C)N1CC[C@@H]2[C@H]1C(=O)NC[C@H](CCC(=O)NCc1ccc(F)cc1)N2C	i
CC1CCN(S(=O)(=O)c2ccc3c(ccn3CC(=O)NCc3ccc(F)cc3)c2)CC1	i
C=C(C)[C@@H]1CC[C@]2(C(=O)O)CC[C@]3(C)C(CCC4[C@]5(C)C(CC[C@]43C)C(C)(C)[C@@H](O)[C@@H]5C(=O)O)C12 (some centres undefined)	i
Cn1cnc(C(=O)N2CC(F)(F)C[C@H]2c2nc(C3CC3)no2)c1	i
Cc1ccccc1Cn1nc2n(c1=O)CCCCC2	i
CC(C)(C)NC[C@H](O)COc1cccc2c1CCCC2=O	?
CC(C)(C)c1ccc(-c2nc3ccccc3[nH]2)cc1	+
CC1(C)CC[C@]2(C(=O)O[C@@H]3O[C@H](CO[C@@H]4O[C@H](CO)[C@@H](O)[C@H](O)[C@H]4O[C@@H]4O[C@H](CO)[C@@H](O)[C@H](O)[C@H]4O)[C@@H](O)[C@H](O[C@@H]4O[C@H](CO)[C@@H](O)[C@H](O)[C@H]4O)[C@H]3O)CC[C@]3(C)C(=CCC4[C@@]5(C)CC[C@@H](O)[C@@](C)(C(=O)O[C@@H]6O[C@H](CO)[C@@H](O)[C@H](O)[C@H]6O)C5CC[C@]43C)[C@@H]2C1 (some centres undefined)	i
c1ccc(CN2CCc3[nH]cnc3C2c2ccc(-c3ccccn3)cc2)nc1 (centres undefined)	i
CCCNC(=O)N1CCCCCC1CN1CCCC1 (centres undefined)	i
Cc1cc(S(=O)(=O)N2CCC(n3c(=O)[nH]c4ccccc43)CC2)ccc1-n1cnnn1	i
CCC(C)NC(=O)c1ccc2c(=O)n(C)c3nnc(SCC(=O)Nc4ccccc4OC)n3c2c1 (centres undefined)	i
CC1(C(=O)NC2CCCCCC2)Cn2c(cc3sccc32)C(=O)N1Cc1ccc(F)cc1 (centres undefined)	i
CC(C)N1C[C@@H](CO)[C@H](c2nc(-c3cccnc3)no2)C1	i
CC(C)OCCCn1c(=O)c2ccccc2n2c(CCC(=O)N3CCN(c4ccccc4)CC3)nnc12	i
Cc1ccc(CCNC(=O)CCc2nnc3n(CCc4ccccc4)c(=O)c4ccccc4n23)cc1	i
CC(C)N1C[C@@H]2OCC(=O)N(Cc3ccccc3)[C@@H]2C1	i
CC(C)Oc1ccc(CN2C(=O)c3cc4sccc4n3CC2(C)C(=O)NC2CCCCC2C)cc1 (centres undefined)	i
O=c1ccc2c(OCCCCc3ccccc3)c3ccoc3cc2o1	i
CCCn1c(=O)c2cc(Cl)ccc2n2c(=O)n(CC(=O)N3CCN(c4ccccc4F)CC3)nc12	i
COC1CCOC2(CCN(S(=O)(=O)c3cn(C)cn3)CC2)C1 (centres undefined)	i
CCOc1ccc(C(=O)Cn2nc3n(C(C)C)c(=O)c4ccc(C(=O)NCC(C)C)cc4n3c2=O)cc1	i
O=C(Nc1ccc(-c2ccncc2)cc1)N[C@H](CO)c1ccccc1	i
O=C(c1n[nH]c2c1CCCC2)N1CCc2nc3cc[nH]n3c(=O)c2C1	i
COc1cc(/C=C/CO[C@@H]2O[C@H](CO)[C@@H](O)[C@H](O)[C@H]2O)cc(OC)c1O[C@@H]1O[C@H](CO)[C@@H](O)[C@H](O)[C@H]1O	i
C[C@@H]1CN(C(=O)CN2CCN(c3ncccn3)CC2)C[C@@]1(O)C1CCC1	i
CC(NC(=O)CC(=O)O)C(=O)Nc1ccccc1C(N)=O (centres undefined)	i
Cc1cc(Nc2cccc(Cl)c2)nc2ccc(NC(=O)Cc3cccc(C(F)(F)F)c3)cc12	?
N#Cc1ccc(C(=O)N2CCN3CCS(=O)(=O)N(C4CC4)C(=O)C3C2)cc1 (centres undefined)	i
COc1ccc(CNC(=O)CCCc2nnc3n4nc(-c5ccccc5)nc4c4ccccc4n23)cc1	i
O=C(c1ccc(CN2C(=O)NC3(CCOCC3)C2=O)cc1)N1CCc2ccccc2C1	i
COc1ccc(-c2nnc3n(CCc4ccccc4)c(=O)c4ccccc4n23)c(OC)c1	?
CC1(C(=O)NC2CCCCCCC2)Cn2c(cc3occc32)C(=O)N1Cc1cccnc1 (centres undefined)	i
CCOc1ccccc1CN1C(=O)c2c(C(=O)OC)ncn2CC1(C)C(=O)NC1CCCC1 (centres undefined)	i
O=C(c1cc(-c2ccccc2)nc2ccccc12)N1CCc2c(nc[nH]c2=O)C1	i
CCOc1ccc(S(=O)(=O)n2c(C)nc3ccccc32)cc1	i
O=C(CCC1CCN(Cc2cn(-c3ccccc3)nn2)CC1)N1CCOCC1	i
c1ccc(CC2=NOC3(CCN(Cc4c[nH]c5ccccc45)CC3)C2)cc1	i
O=C(Nc1nnc(-c2ccc3c(c2)OCCO3)o1)C1CCCCC1	i
Cc1ccc(CNC(=O)CSc2nnc3n(C)c(=O)c4ccc(C(=O)NC5CCCC5)cc4n23)cc1	i
CN1C(=O)CC[C@]2(C(=O)N3CCCCC3)CCCC[C@@H]12	i
COc1cc2c(cc1OC)C1Cc3ccc(OC)c(OC)c3CN1CC2 (centres undefined)	?
CCCCN1C(=O)c2cc(C(=O)NCCc3ccc(C)cc3)nn2CC1(C)C(=O)NC1CCCC1 (centres undefined)	i
COc1cccc(CCC(=O)NC2CCN(c3cc(C(F)(F)F)nc(C)n3)CC2)c1	i
COc1cccc(CC(=O)NCc2ccc(Cl)s2)c1	i
COc1ccccc1CC(=O)N1CC[C@@H]2NC(=O)[C@H]3C[C@H](NC(=O)C4CCC4)CN3C(=O)[C@H]21	i

Shown comma-delimited: five of the compounds above.
Molecule,Methyltransferases
CCOc1ccccc1CN1C(=O)c2c(C(=O)OC)ncn2CC1(C)C(=O)NC1CCCC1 (centres undefined),i
O=C(c1cc(-c2ccccc2)nc2ccccc12)N1CCc2c(nc[nH]c2=O)C1,i
CCOc1ccc(S(=O)(=O)n2c(C)nc3ccccc32)cc1,i
O=C(CCC1CCN(Cc2cn(-c3ccccc3)nn2)CC1)N1CCOCC1,i
c1ccc(CC2=NOC3(CCN(Cc4c[nH]c5ccccc45)CC3)C2)cc1,i

Next section
SMILES	Methyltransferases
Cc1cc2c(cc3n2CC(C)(C(=O)NC2CCCCCC2)N(CC(C)c2ccccc2)C3=O)o1 (centres undefined)	i
Cc1cccc(C)c1-c1nc(C(=O)N2CCN(c3ncccn3)CC2)n2ccccc12	i
COc1ccc(OC)c2c1cc1n2CC(C)(C(=O)NC2CCC(C)CC2)N(Cc2cccnc2)C1=O (centres undefined)	i
CC1CCCN(c2nc3c(-c4ccccc4)nnn3c3ccccc23)C1 (centres undefined)	i
CC1CCC(NC(=O)C2(C)Cn3c(cc4occc43)C(=O)N2Cc2ccc(F)cc2)CC1 (centres undefined)	i
CCC1CCCCN1C(=O)Cn1c(=O)oc2cc(S(=O)(=O)N3CCCCC3)ccc21 (centres undefined)	i
COc1ccc(CC(=O)N2C[C@@H]3C[C@H](C2)c2c(-c4ccc(NC(C)=O)cc4)ccc(=O)n2C3)cc1	i
CCCn1c(=O)c2ccc(C(=O)NC3CCCCC3)cc2n2c(=O)n(CC(=O)Nc3ccc(C)cc3)nc12	i
CCCNC(=O)CCn1ccc2cc(S(=O)(=O)N3CCCCC3)ccc21	i
Cc1ccc(S(=O)(=O)N2CCC(Oc3ncccc3C(=O)N(C)C)C2)cc1C (centres undefined)	i
CCOC(=O)C[C@@H]1C[C@@H](C(C)C)[C@H](CNC(=O)c2cccnc2)C=C1C	i
CN1C(=O)c2cc(C(=O)NCCCN3CCCCC3)nn2CC1(C)C(=O)NCc1ccccc1 (centres undefined)	i
Cc1c(Cl)cccc1N1C(=O)c2cc3sccc3n2CC1(C)C(=O)NC1CCC(C)CC1 (centres undefined)	i
Cn1cnnc1CC1CCNC1 (centres undefined)	i
O=C1CCC(CNS(=O)(=O)c2cccnc2)CCN1Cc1ccccc1 (centres undefined)	i
CCN(CC)C(=O)[C@@H]1C[C@@H](NC(=O)c2ccn(CC)c(=O)c2)CN1C(C)=O	i
CCOC(=O)c1cc2n(n1)CC(C)(C(=O)NC1CCCCCC1)N(c1ccc(Cl)cc1)C2=O (centres undefined)	i
COc1ccccc1CNC(=O)C1c2c(n(C)c3ccccc23)SCC(=O)N1c1ccc(C)c(C)c1 (centres undefined)	i
Cc1cccc(-c2nnn3c2nc(N2CCCCC2)c2ccccc23)c1	i
COC(=O)c1ccc(COc2cc3oc(=O)cc(-c4ccccc4)c3cc2Cl)cc1	i
CCc1c(C)nn(CCNC(=O)c2cc(S(N)(=O)=O)ccc2F)c1C	i
CN1C(=O)c2cccn2CC1CNC(=O)c1cccc2nccnc12 (centres undefined)	i
Cc1ccc2c(c1)C1C=CCC1C(c1ccccc1Cl)N2 (centres undefined)	i
COc1ccc(OC)c(CNC(=O)Cn2ccc3cc(S(=O)(=O)N4CCCC4)ccc32)c1	i
CCCn1c(=O)c2ccccc2n2c(SCc3ccc(Cl)cc3)nnc12	i
CN1CCN(CCCNC(=O)c2cc3n(n2)CC(C)(C(=O)NCc2ccccc2)N(C)C3=O)CC1 (centres undefined)	i
Cc1cc(C(=O)N2CCCC[C@H](N(C)C)C2)c(-c2ccccc2)o1	i
CCCn1c(=O)c2ccc(C(=O)NC(C)C)cc2n2c(=O)n(Cc3ccccc3Cl)nc12	i
N=C(N)c1ccc2nc(-c3cc(CC(=O)NC(CC(=O)O)C(=O)O)cc(-c4cc(S(N)(=O)=O)ccc4O)c3O)[nH]c2c1 (centres undefined)	i
COc1ccc2cc3n(c2c1)CC(C)(C(=O)NC1CCCCC1)N(C(C)c1ccccc1)C3=O (centres undefined)	i
COC(=O)[C@@H](Cc1c[nH]c2ccccc12)NC(=O)[C@@H]1CN(C(=O)c2cccnc2)CCN1C(=O)NC(C)C	i
